# Compound activity as filed in PubChem.
# PrP 5UTR inh: inhibition of PrP 5' UTR reporter expression; cell-based PrP 5' UTR mRNA reporter, plate reader; inhibition, % (test concentration not listed); hit rate 0.35% among 340,000; AID 488862, 2010;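 active = every replicate at 50% or more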;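 note: 0 = median of the neutral control wells; tested in H4 reporter cells; numbers are from one replicate; inactives centre near -14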
# BJeLR viability: MLPCN primary cell-based screen for lethality selective to Ras in HRASV12 cells. hit rate 0.17% among 300,000. inhibition, % (no concentration beside the values). BJeLR (HRASV12) viability, CellTiter-Glo ATP luminescence, 48 h; reference of the scale not given here;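 active = replicate mean above 50%; inconclusive = above 50% but judged a plate artefact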;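 note: 50 nL library stock added to about 25 µL; numbers are from one replicate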
# Sa ugtP lethal: growth inhibition of ugtP-null S. aureus, primary screen, RN4220 ugtP deletion, OD600 | 16 h; some inactives read as strong as hits | hit rate 0.54% among 330,000 | AID 1259309, 2017 | growth inhibition, % (test concentration not listed);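 active = z-score under -3 and OD600 up to 0.15 on both plates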;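 note: plate controls were untreated wells for no effect and antibiotic for full effect; wells of about 80 µL received 100 nL stock; the first replicate is given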
# RN4220 kill: growth inhibition of S. aureus RN4220, primary screen, OD600 | hit rate 0.33% among 330,000 | inhibition, % (no concentration beside the values) | AID 1259311, 2017 | 16 h;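 active = z-score of -3 or lower and OD600 up to 0.18 on both plates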;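 note: plate controls were untreated cells for no effect and reference antibiotic for full effect; stock transfer was 100 nL into about 80 µL; one replicate is shown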
# Mtb hypoxia inh: PubChem AID 1159583. M. tuberculosis hypoxia-regulated fluorescent reporter, fluorescence. fluorescence inhibition, % (no concentration beside the values). hit rate 0.1% among 300,000;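 active = 35 to 45% if threefold the growth effect, above 45% if 1.5-fold the growth effect; inactive = the rest, general growth blockers included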;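 note: wells of about 50 µL received 100 nL stock; 0% = vehicle wells and 100% = reference inhibitor wells; whole bacteria with a GFP reporter of the hypoxia response; strong numbers were not always called active; many hits fall short of the cut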
# Autofluor counter: compound fluorescence in toxin protease inhibitor counterscreen. hit rate 3.1% among 360,000. compound autofluorescence counterscreen, microsphere flow cytometry; hits give high values. AID 624483. fluorescence intensity (no concentration beside the values);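 active = at least 3 SD above the mean of all compounds, about 16000 in these data; inconclusive = too few beads counted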;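 note: 100 nL of 1 mM stock went into each well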
# Mtb hypoxia inh growth: second read-out of Mtb hypoxia inh, no call of its own (marks repeat the call); growth inhibition, %; measured here: M. tuberculosis growth (absorbance);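 0% = vehicle and 100% = reference antibiotic; read after six days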
# * hit, by the source's call; u = inconclusive; x = not tested or not shown. No enrichment for hits. Share with any hit: about 4.1%.
# Key to letters – A = PrP 5UTR inh; B = BJeLR viability; C = Sa ugtP lethal; D = RN4220 kill; E = Mtb hypoxia inh; F = Mtb hypoxia inh growth; G = Autofluor counter
1. CCc1nonc1NC(=O)c1oc2c(C)c(C)ccc2c1C
  A: -16; B: -7; C: -1; D: 5.2; E: 5; F: 9; G: 5470
2. Cn1cccc1C=NNC(=O)c1cc(-c2cccs2)nc2ccccc12
  A: x; B: x; C: 12; D: 1.3; E: -5; F: 3; G: x
3. COc1ccc(C(=O)NC2CCCc3ccccc32)cc1OC1CCN(C(C)=O)CC1 (configuration not stated)
  A: 11; B: 9; C: -5; D: -1.4; E: -3; F: 5; G: 5082
4. NS(=O)(=O)c1ccc(CCNC(=O)CSc2nnc3ccccn23)cc1
  A: -21; B: 1; C: 5; D: 1.9; E: -4; F: -20; G: 4771
5. CCCCCC(=O)Nc1cc(S(=O)(=O)N2CCOCC2)ccc1N1CCCCC1
  A: -25; B: -8; C: -10; D: -4.1; E: -2; F: 3; G: u
6. CCOC(=O)Cn1nc(C)c(NC(=O)c2ccc(Cl)c([N+](=O)[O-])c2)c1C
  A: -2; B: -8; C: 3; D: 5.9; E: 4; F: 7; G: 3433
7. COc1cc(CN2CCN(Cc3cn(C)c4ccccc34)CC2CCO)cc(OC)c1 (configuration not stated)
  A: -24; B: -5; C: 3; D: -1.3; E: -7; F: 11; G: 4143
8. Cc1ccc(C(=O)NC(=S)NNC(=O)c2cccc([N+](=O)[O-])c2)cc1
  A: -18; B: 2; C: 7; D: 28; E: 5; F: 2; G: 3602
9. Cc1ccc(OCCNC(=O)/C=C/c2ccco2)cc1C
  A: -6; B: 2; C: 8; D: -4.7; E: x; F: x; G: 6184
10. Cc1ccc(-c2csc3ncn(CC(=O)N4CCOCC4)c(=O)c23)cc1C
  A: -13; B: -3; C: -1; D: -2.8; E: 11; F: 11; G: 3422

# Filtered by structure, the compounds so far containing an aryl methoxy group
# Key to letters – A = PrP 5UTR inh; B = BJeLR viability; C = Sa ugtP lethal; D = RN4220 kill; E = Mtb hypoxia inh; F = Mtb hypoxia inh growth; G = Autofluor counter
3. COc1ccc(C(=O)NC2CCCc3ccccc32)cc1OC1CCN(C(C)=O)CC1 (configuration not stated)
  A: 11; B: 9; C: -5; D: -1.4; E: -3; F: 5; G: 5082
7. COc1cc(CN2CCN(Cc3cn(C)c4ccccc34)CC2CCO)cc(OC)c1 (configuration not stated)
  A: -24; B: -5; C: 3; D: -1.3; E: -7; F: 11; G: 4143

# More records:
# Key to letters – A = PrP 5UTR inh; B = BJeLR viability; C = Sa ugtP lethal; D = RN4220 kill; E = Mtb hypoxia inh; F = Mtb hypoxia inh growth; G = Autofluor counter
11. O=C(O)CCCNc1ccc([N+](=O)[O-])c(NCCCC(=O)O)n1
  A: -14; B: -5; C: 4; D: 7.3; E: -7; F: -10; G: 4756
12. COc1ccc(C=NNc2snc(SC)c2C#N)cc1OC
  A: x; B: x; C: 42; D: 2.0; E: 11; F: 7; G: x
13. O=C(c1ccc(-c2cc3ccccc3oc2=O)cc1)N1CCN(c2ccc(Cl)cc2[N+](=O)[O-])CC1
  A: -14; B: 5; C: -16; D: 8.2; E: -7; F: -2; G: 2847
14. N#Cc1cccn1-c1nccc(-c2cccs2)n1
  A: -24; B: -1; C: -3; D: 19; E: 16; F: 2; G: 2634
15. C=CCn1c(C)cc(C(=O)COc2ncnc3sccc23)c1C
  A: -47; B: 1; C: 14; D: 3.6; E: 14; F: 3; G: 6741
16. Cc1oc2c(O)c(O)ccc2c(=O)c1-c1cnn(-c2ccccc2)c1
  A: -36; B: -10; C: -18; D: 16; E: 6; F: 1; G: 10304
17. CC1=NN(C(N)=S)C(=O)C1N=Nc1ccc(C)cc1C (configuration not stated)
  A: x; B: 3; C: -18; D: -17; E: 1; F: 12; G: x
18. Cc1cccc(Cc2nnc(CCC(=O)N3CCCCC3c3nccs3)o2)c1 (configuration not stated)
  A: -17; B: 5; C: 3; D: 3.9; E: 8; F: 5; G: 3449
19. Cc1cc(=O)[nH]c(NN=C2CCC(C(C)(C)C)CC2)n1 (configuration not stated)
  A: -42; B: 2; C: 8; D: 3.1; E: 7; F: 8; G: 8488
20. Cn1cc(S(=O)(=O)CC(=O)Nc2ccc(Br)cc2)c2ccccc21
  A: -11; B: -11; C: -4; D: 6.0; E: 2; F: -2; G: 4420

# Results in sequence from the list.
# RN4220 kill for entries 10–19 → -2.8, 7.3, 2.0, 8.2, 19, 3.6, 16, -17, 3.9, 3.1
# Mtb hypoxia inh for entries 10–19 → 11, -7, 11, -7, 16, 14, 6, 1, 8, 7

# Further compounds
# Key to letters – A = PrP 5UTR inh; B = BJeLR viability; C = Sa ugtP lethal; D = RN4220 kill; E = Mtb hypoxia inh; F = Mtb hypoxia inh growth; G = Autofluor counter
21. CC(C)CC(C(=O)OCC(=O)Nc1cccc(Cl)c1)N1C(=O)C2CC=CCC2C1=O (configuration not stated)
  A: -39; B: -3; C: -12; D: 7.6; E: 7; F: 1; G: 2568
22. Cc1oc2c(CN3CCCCC3C)c(O)ccc2c(=O)c1-c1ccccc1 (configuration not stated)
  A: 5; B: -9; C: -1; D: 0.6; E: -6; F: 1; G: 2973
23. Cc1sc2ncnc(N[C@@H](Cc3ccccc3)C(=O)O)c2c1C
  A: -32; B: -4; C: 11; D: 1.7; E: 6; F: 3; G: 4071
24. Cc1cc(S(=O)(=O)Nc2ccc(N3CCOCC3)cc2)ccc1Br
  A: -18; B: 10; C: 5; D: 5.2; E: 0; F: -1; G: 3643
25. CCCN(CC(=O)Nc1ccc(F)c(F)c1F)C(=O)c1ccc(=O)n(Cc2ccccc2)n1
  A: -14; B: 16; C: 8; D: -0.1; E: 3; F: 0; G: u
26. CC(C)(C)C(=O)NC1CCSC1=O (configuration not stated)
  A: x; B: 6; C: -3; D: 1.8; E: -1; F: 16; G: x
27. CCc1ccc2c(c1)CCCN2C(=O)c1ccccc1C(=O)O
  A: -18; B: 1; C: -8; D: 2.1; E: 8; F: 9; G: 19882*
28. O=C(CCc1nnc(CCC2CCCCC2)o1)NCCc1ccccn1
  A: -19; B: 8; C: 12; D: 0.4; E: 18; F: 19; G: 2081
29. Cc1ccc(CC(=O)NCC2CCCCC2)cc1
  A: -16; B: -10; C: 4; D: -0.1; E: x; F: x; G: 3810
30. O=[N+]([O-])c1ccc(C(O)CN2CCN(c3ccccc3)CC2)cc1 (configuration not stated)
  A: -10; B: 3; C: 12; D: 1.7; E: 5; F: 5; G: 3847

# Structural class, the compounds so far with a tert-butyl group (2)
# Key to letters – A = PrP 5UTR inh; B = BJeLR viability; C = Sa ugtP lethal; D = RN4220 kill; E = Mtb hypoxia inh; F = Mtb hypoxia inh growth; G = Autofluor counter
19. Cc1cc(=O)[nH]c(NN=C2CCC(C(C)(C)C)CC2)n1 (configuration not stated)
  A: -42; B: 2; C: 8; D: 3.1; E: 7; F: 8; G: 8488
26. CC(C)(C)C(=O)NC1CCSC1=O (configuration not stated)
  A: x; B: 6; C: -3; D: 1.8; E: -1; F: 16; G: x

# The list goes on.
# Key to letters – A = PrP 5UTR inh; B = BJeLR viability; C = Sa ugtP lethal; D = RN4220 kill; E = Mtb hypoxia inh; F = Mtb hypoxia inh growth; G = Autofluor counter
31. CCn1c(Cc2ccc(OC)cc2)nnc1SCC(=O)NC1CC1
  A: -3; B: -2; C: x; D: x; E: x; F: x; G: 4361
32. O=C(Nc1nnc(CCc2ccccc2)s1)c1ccc(F)cc1
  A: -8; B: -19; C: 3; D: -5.4; E: -7; F: 1; G: 3983
33. O=C(CN1CCN(Cc2ccccc2)CC1)NC(c1ccccc1)c1ccccc1
  A: -22; B: 8; C: 10; D: 1.0; E: 2; F: -1; G: 4575
34. Cc1cc(C(=O)CN2CCCCC2)c(C)n1-c1ccc(F)cc1
  A: -79; B: -3; C: 10; D: 2.1; E: 11; F: -1; G: 2363
35. O=C(NC1CCCC1)C1CCN(C(=O)c2cc(Cl)ccc2Cl)CC1
  A: -16; B: 4; C: -1; D: -0.5; E: -10; F: 1; G: 5331
36. O=C(NCCN1CCOCC1)c1ccccc1[N+](=O)[O-]
  A: -9; B: -15; C: 1; D: 1.3; E: 7; F: 6; G: 3054
37. COc1ccccc1N/C=C/C(=C(C#N)C#N)N(C)C
  A: -18; B: 2; C: -4; D: 2.6; E: -2; F: 2; G: 4536

# 2 of these compounds, set out differently:
item	SMILES	PrP 5UTR inh	BJeLR viability	Sa ugtP lethal	RN4220 kill	Mtb hypoxia inh	Mtb hypoxia inh growth	Autofluor counter
3	COc1ccc(C(=O)NC2CCCc3ccccc32)cc1OC1CCN(C(C)=O)CC1 (configuration not stated)	11	9	-5	-1.4	-3	5	5082
4	NS(=O)(=O)c1ccc(CCNC(=O)CSc2nnc3ccccn23)cc1	-21	1	5	1.9	-4	-20	4771
